# Mtb growth – Mycobacterium tuberculosis H37Rv growth inhibition, cell based, confirmatory dose response (AID 1949). most inactive calls were filed without a number and no value below 0 was filed. inhibition, % at 10 µg/mL; hits with a dose series show IC50 in µg/mL. actives 1.6% (n = 100,000);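 active means confirmed in a dose series; inconclusive means about 50% or more but not retested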;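 further: bacteria grown 7 days with compound before Alamar blue readout; 0% = untreated bacteria and 100% = reference antibiotic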
# * marks the source's active call; other numbers are inactive results; i = inactive; ? = inconclusive. An excerpt; count on the stated rates, not on these rows.
Molecule,Mtb growth
Cc1ccc(C(=O)N2CCN(c3ccc(NC(=O)c4cccc(OC(C)C)c4)cc3)CC2)cc1,1%
CC(=O)N(C)c1ccc(OCC(O)Cn2c3ccc(Cl)cc3c3cc(Cl)ccc32)cc1 (stereo not drawn),3µg/mL*
CCOc1ccc(Cl)cc1C(=O)Nc1ccc(CC(=O)OC)cc1,i
CCOC(=O)NCc1ccc(CNC(=O)OCC)cc1,i
COc1ccccc1NC(=O)c1c(NC(=O)c2ccco2)sc(C)c1C,i
CCCCCNC(=O)C(C)Sc1ccc(Cl)cc1 (stereo not drawn),i
CCOc1ccc(Br)cc1C1C(C#N)=C(N)SC(N)=C1C#N,i
C=CCOc1nc(N(C)C)nc(N2CCOCC2)n1,i
CSc1nc2ccc(I)cc2c(=O)n1-c1ccccc1,i
CC(C)CNS(=O)(=O)c1ccc(OCC(=O)N2CCOCC2)c(Cl)c1,i
O=C1CC(C(=O)N2CCOCC2)C2(CCCCC2)O1 (stereo not drawn),i
Cc1ccc(OCCN)c(Br)c1,7%
CCn1c(CSc2nc3ccccc3[nH]2)n[nH]c1=S,i
COc1ccc(C(=O)Nc2cc(C)c(I)cc2C)cc1,i
CCCSc1nc(C)c(Cc2ccccc2)c(=O)[nH]1,42%
Cn1c(CSCc2ccc(Cl)c(Cl)c2)nnc1SCC(=O)Nc1nccs1,i
CC(C)(C)c1ccc(S(=O)(=O)Nc2ccc(C(=O)O)cc2)cc1,i
COC(=O)C1CCN(C(=O)Cc2ccc(OC)c(OC)c2)CC1,2%
CCC(C)NCCOc1cc(C)cc(C)c1C (stereo not drawn),i
Clc1ccccc1-c1nnc(-c2ccccc2Cl)o1,i
CCN(CC)C(=O)c1ccc(COc2ccccc2Cl)cc1,3%
CCCSc1ncc(Cl)c(C(=O)Nc2cc(OC)ccc2OC)n1,i
O=C(NS(=O)(=O)c1ccccc1)c1cccc(Br)c1,i
COc1ccc(CNC(=O)c2cc3c(n(-c4ccc(C)cc4)c2=O)CCCC3=O)cc1OC,i
Cc1ccc(Cl)cc1N1CCN(C(=O)CN(C)S(=O)(=O)c2ccc(F)cc2)CC1,4%
COc1ccccc1N1CCN(C(=O)c2ccc(C(=O)c3c(C)cc(C)cc3C)cc2)CC1,35%
CCOc1ccc2nc(SC3CC(=O)N(c4ccc(C)c(C)c4)C3=O)nc(C)c2c1 (stereo not drawn),i
CCOC(=O)c1cc(Cc2ccccc2)sc1NC(=S)NCCCN1CCCC1=O,i
C=CCNC(=O)C(=O)NCc1ccc(C)cc1,0%
CCOc1ccccc1N1CCN(S(=O)(=O)c2cc(OC)ccc2OC)CC1,5%
O=C(CN(C1CCCCC1)S(=O)(=O)c1ccc(F)cc1)N1CCN(c2ccccc2F)CC1,i
O=C(NCCCn1ccnc1)c1ccc(Cl)c(Cl)c1,0%

# Reprinted at random: three entries already listed.
Molecule,Mtb growth
Cn1c(CSCc2ccc(Cl)c(Cl)c2)nnc1SCC(=O)Nc1nccs1,i
CCN(CC)C(=O)c1ccc(COc2ccccc2Cl)cc1,3%
Clc1ccccc1-c1nnc(-c2ccccc2Cl)o1,i

# (list continues)
Molecule,Mtb growth
Cc1ccc(S(=O)(=O)N2CCN(C(=O)N3CCCCC3)CC2)c(C)c1,8%
Nc1nnc(SC2c3cccc4cccc(c34)C2NS(=O)(=O)c2ccc(Cl)cc2)s1 (stereo not drawn),i
O=C(CSc1ncnc2sc3c(c12)CCCCC3)NCc1ccc2c(c1)OCO2,i
COc1ccc(-c2nc(N3CCCCC3)[nH]c(=O)c2C#N)cc1,i
CCCn1cnc2sc(C(=O)Nc3ccccc3OC)c(C)c2c1=O,i
Clc1ccc(OCc2nc(-c3cccnc3)no2)cc1,0%
CC(C)(C)c1oc(C(=O)O)cc1CN1CCOCC1,i
Cc1ccc(OCC(=O)N2CCN(c3nnc(-c4ccccc4)c4ccccc34)CC2)cc1,?
COc1ccc(NC(=O)C2C(=O)CN(c3ccccc3)C2=O)cc1 (stereo not drawn),i
COC(=O)c1ccc(NC(=O)C2CC(=O)N(c3ccc(F)cc3)C2)cc1 (stereo not drawn),i
O=C(CSc1ncnc2sc3c(c12)CCC3)c1ccc2c(c1)OCO2,i
CC(C)N1CCN(Cc2cccnc2)CC1,i
Cc1ccc(N)c(C(=O)CCCCC(=O)O)c1,i
CCn1c(C)nc2cc(C(F)(F)F)c(Cl)cc21,2%
CCOc1ccc2nc3cc(N)ccc3c(N)c2c1,0.81µg/mL*
Cc1ccc(S(=O)(=O)N(C)Cc2nc(-c3ccccc3)no2)cc1,2%
Cc1sc2ncnc(NCCCN3CCOCC3)c2c1-c1ccccc1,i
Cc1cc(=O)n(-c2ccc(Br)cc2)[nH]1,i
CCCCOc1ccc(N2CC(C(=O)NCCCOC)CC2=O)cc1 (stereo not drawn),i
CCCCOc1ccc(C(=O)NC(=S)Nc2ccccc2N2CCN(C(=O)C(C)C)CC2)cc1,i
CCOc1ccc(Br)cc1S(=O)(=O)N1CCN(c2ccccc2OC)CC1,i
Cc1ccc(Cl)cc1NC(=S)NC(=O)c1ccccc1I,0%
O=C(NCc1cccnc1)C1COc2ccccc2O1 (stereo not drawn),i
O=c1c2c(C(F)(F)F)cc(-c3ccccc3)nc2[nH]n1-c1ccccc1,i

# Ordered by molecular weight (largest number first): 8 of the compounds above
Molecule,Mtb growth
CCCCOc1ccc(C(=O)NC(=S)Nc2ccccc2N2CCN(C(=O)C(C)C)CC2)cc1,i
CCOc1ccc(Br)cc1S(=O)(=O)N1CCN(c2ccccc2OC)CC1,i
Cc1ccc(Cl)cc1NC(=S)NC(=O)c1ccccc1I,0%
Cc1sc2ncnc(NCCCN3CCOCC3)c2c1-c1ccccc1,i
O=c1c2c(C(F)(F)F)cc(-c3ccccc3)nc2[nH]n1-c1ccccc1,i
CCCCOc1ccc(N2CC(C(=O)NCCCOC)CC2=O)cc1 (stereo not drawn),i
CCn1c(C)nc2cc(C(F)(F)F)c(Cl)cc21,2%
CCOc1ccc2nc3cc(N)ccc3c(N)c2c1,0.81µg/mL*

# Later entries.
Molecule,Mtb growth
COc1cccc(C(=O)Nc2nc(-c3ccc(C)c(C)c3)cs2)c1,12%
Cc1ccc(Nc2nnc(-c3ccncc3)s2)c(Br)c1,1%
CN(C)CCCOc1ccc2ccccc2c1,i
Cc1ccc(S(=O)(=O)N(CC(=O)Nc2ccc3c(c2)OCO3)Cc2ccc(F)cc2)cc1,i
COc1cccc(-c2nn(-c3ccccc3)cc2CNCc2ccccc2)c1,47%
O=C(Oc1ccc2cc(Br)ccc2c1)N1CCCC1,9%
O=[N+]([O-])c1ccc(-c2ccc(-c3csc(Nc4ccc(Cl)cc4)n3)o2)cc1,i
Cc1ccc(S(=O)(=O)NC(=O)Nc2ccc(C(C)C)cc2)cc1,i
CCc1c(C)sc(NC(=O)c2ccc(Cl)cc2)c1C(=O)OC,i
CN1CCN(C(=O)C2CCN(Cc3cccs3)CC2)CC1,i
c1ccc(OCc2nc3ccccc3n2Cc2ccccn2)cc1,i
CCC(=O)Oc1ccc2c(C)cc(=O)oc2c1I,i
Fc1ccc(-c2nc(-c3ccncc3)no2)cc1,i
CC(Oc1ccc(Br)cc1)C(=O)Nc1cccc(F)c1 (stereo not drawn),i
C=CCn1c(SCC(=O)Nc2nccs2)nnc1C(C)NC(=O)c1ccccc1C (stereo not drawn),1%
CCN(CC)C(=S)NC(=O)c1ccc(Cl)cc1,1.4µg/mL*
CCc1cc(=O)oc2c(C)c(Oc3ccc([N+](=O)[O-])cc3C(F)(F)F)ccc12,3%
COc1ccc(NC(=O)CSc2nc(-c3ccccc3)cc(=O)[nH]2)cc1,i
Nc1nnc(SCC(=O)Nc2ccccc2Br)s1,i
Cc1ccc(NC(=O)CC2Sc3ccc(C(F)(F)F)cc3NC2=O)c(C)c1 (stereo not drawn),i
COc1ccc(CC(C)CC(=O)Nc2cccc(Cl)c2C)cc1 (stereo not drawn),i
CCOC(=O)CCSc1cc(C)c2ccccc2n1,i
COc1ccc(N2C(=O)CCC2(C#N)c2ccccc2)cc1 (stereo not drawn),i
Cc1ccccc1C(=O)NC(=S)Nc1ccc2c(c1)COC2=O,i

# The list goes on:
structure	Mtb growth
O=C(CSc1ncccc1C(=O)O)Nc1ccc(Oc2ccccc2)cc1	i
CCN1CCN(CCOCCOc2ccc3c(c2)CCC3)CC1	i
CCCn1cnc2sc(C(N)=O)c(C)c2c1=O	2%
COc1ccc(N(CC(=O)N2CCN(Cc3ccc4c(c3)OCO4)CC2)S(C)(=O)=O)cc1Cl	i
COC(=O)C1=CN(CC2CCCO2)C=C(C(=O)OC)C1c1ccc(Cl)s1 (stereo not drawn)	i
CCOC(=O)Cc1nnc(NC(=O)CSc2nnc3c4cc(Br)ccc4n(C)c3n2)s1	i
CC(=O)Nc1ccc(S(=O)(=O)NCCSc2ccccn2)cc1	i
CCOc1ccccc1N(CC(=O)Nc1ccc(OC)cc1)S(=O)(=O)c1ccccc1	1%
CCc1ccccc1NC(=O)CSc1nnc(CNC(=O)c2ccc(Cl)cc2)n1CC	i
CCCCOc1ccccc1NC(=O)c1ccco1	i
CCn1cnc2scc(-c3ccc(C)c(C)c3)c2c1=O	2%
CC(C)CCNC(=O)c1ccc(N(C)S(C)(=O)=O)cc1	i
COc1ccc(C(=O)Nc2ccc(Cl)cc2)cc1S(=O)(=O)Nc1ccc(Cl)cc1	i
Cc1ccc(SCC(=O)NC2CCCCC2C)cc1 (stereo not drawn)	i
CCOc1ccc(C(=O)Nc2ccccc2CC)cc1Cl	28%
COc1ccc(OC)c(NC(=O)c2cc3cc(Br)ccc3oc2=O)c1	0.2µg/mL*
Cc1ccc(CC(=O)Nc2nc3ccc(S(C)(=O)=O)cc3s2)cc1	i
C=CCC(CC=C)(C(=O)Nc1ccc(NC(=O)c2ccccc2F)cc1)c1ccccc1	i
CC(C)c1ccc(OCC(=O)N2CCCc3ccccc32)c(Br)c1	6%
COc1ccc2c(c1)C1OCCC1C(c1ccco1)N2 (stereo not drawn)	11%
COC(=O)c1c(C)nn(-c2ccccc2)c1NC(=O)c1cccc([N+](=O)[O-])c1	i
O=[N+]([O-])c1ccccc1OCC(O)CN1CCN(c2cccc(Cl)c2)CC1 (stereo not drawn)	15%
COC(=O)c1ccc(NC(=O)CSc2nnc(C)c3ccccc23)cc1	i
Cc1ccc(N2C(=O)CC(Sc3ncn[nH]3)C2=O)cc1C (stereo not drawn)	i
Cc1cc(Br)ccc1OCC(=O)Nc1ccc(Cl)c(Cl)c1	i
Cc1c(Cl)cccc1NC(=O)Cc1ccc([N+](=O)[O-])cc1	i
CNC(=O)c1cc2cc(Cc3ccccc3Cl)ccc2oc1=O	i
COc1ccc(C2NC(=O)NC(C)=C2C(=O)Nc2ccccc2)c(OC)c1 (stereo not drawn)	i
CCOc1ccc(NC(=O)CSc2nnc(NC(C)=O)s2)cc1	i
COc1ccc(S(=O)(=O)N(CC(=O)NCCSc2ccccc2)c2cccc(Cl)c2)cc1	i
Cc1cccc(-c2nc(=S)c3c(o2)CCCC3)c1	8%
O=c1c2ccccc2[nH]c(=S)n1-c1cccc(O)c1	i
O=C(Cn1cnc2sc3c(c2c1=O)CCCC3)Nc1ccccc1	i
CCN(CC)S(=O)(=O)c1ccc(C(=O)Nc2ccc(OCC(=O)N3CCOCC3)cc2)cc1	i
Cc1ccc(C(=O)COc2cccc(NC(=O)c3ccc(Cl)cc3Cl)c2)cc1C	40%
CC(C)Oc1ccc(CNC(=O)c2cccs2)cc1	i
Cc1cc(=O)oc2c(C)c(OCC(=O)c3ccc4ccccc4c3)ccc12	1%
O=C(NC1CCCCC1)c1ccccc1NS(=O)(=O)c1ccc(F)cc1	i
O=C(CN(Cc1ccc(F)cc1)S(=O)(=O)c1ccccc1)NCc1ccccn1	i
Cc1occc1C(=O)Nc1nc(-c2ccc(F)cc2F)cs1	1%

# A few values from the list:
# Value for `COc1cccc(-c2nn(-c3ccccc3)cc2CNCc2ccccc2)c1` in Mtb growth: 47%
# Value for `O=C(NCCCn1ccnc1)c1ccc(Cl)c(Cl)c1` in Mtb growth: 0%

# The results go on:
structure	Mtb growth
Cc1cc(C)cc(OCC(=O)NNC(=O)c2cc(C)[nH]n2)c1	i
Nn1c(SCC(=O)Nc2nc3ccccc3s2)nnc1-c1ccc(Cl)cc1	i
COc1cc(C2NC(=O)CCC2[N+](=O)[O-])c(OC)cc1Br (stereo not drawn)	i
Cc1cc(I)ccc1NC(=O)c1ccccc1N(C)S(C)(=O)=O	i
Clc1ccc(OCc2nc(-c3ccncc3)no2)c(Br)c1	31%
O=C(Oc1ccc(-c2ccccc2)cc1Br)c1ccco1	37%
COC(=O)c1cc(OC)c(OC)cc1NC(=O)c1c(-c2ccccc2Cl)noc1C	0%
Cc1cc(Cl)ccc1NC(=O)CNS(=O)(=O)c1ccc(Br)cc1	i
O=S(=O)(Nc1cccc(NS(=O)(=O)c2ccccc2)n1)c1ccccc1	i
Cc1ccc(C(=O)C2=C(O)C(=O)N(Cc3ccco3)C2c2ccc(F)cc2)o1 (stereo not drawn)	7%
COc1ccc(-c2c3c(=O)n(C)c(=O)n(C)c3c3cccnn23)cc1	1%
O=C(Nc1ccc(N2CCCC2)cc1)C(Cl)(Cl)Cl	i
CS(=O)(=O)N1CCC(C(=O)Nc2cccc(Br)c2)CC1	i
O=C(CCSc1ccccc1)Nc1ccccc1Br	i
Cc1ccc2oc(-c3ccc(F)cc3)nc2c1	i
COc1ccccc1C(=O)N1CCN(C(=O)c2cc(OC)c(OC)c(OC)c2)CC1	i
O=C(CNC(=O)c1ccccc1)OCc1cccc(Br)c1	i
COc1cc(CNCCO)ccc1OCc1ccc(F)cc1	i
CCOc1ccc(CCNC(=O)Nc2ccccc2C)cc1OCC	i
COc1ccccc1CN1COc2cc3c(cc2C1)OCO3	i
O=c1c2ccccc2nc(-c2ccccc2F)n1-c1ccc(Cl)cc1	4%
COc1ccc(C)cc1NC(=O)c1ccc(OCC(=O)Nc2cc(Cl)ccc2Cl)cc1	i

# Screening results: PubChem BioAssay, Southern Research Institute
